Compound activity deposited in PubChem BioAssay by SRMLSC.
H5N1 CPE = MDCK cell protection from H5N1 avian flu; AID 740; inhibition, % at 50 µM; cytopathic effect, luminescence, 72 h; hits give high values; no value below 0 was filed and about half of the inactive calls have no number; reference of the scale not given here; 96,000 tested, 0.07% active; in the data active means inhibition above about 25%
* = called active by the depositor; i = inactive. The list is partial. The share of hits here may be higher or lower than overall.

SMILES	H5N1 CPE
Cc1ccc(S(=O)(=O)N2CCCC2C(=O)OCc2ccco2)cc1 (configuration not stated)	i
CCCc1[nH]nc2c1C(c1ccc(OC(=O)N3CCOCC3)cc1)C(C#N)=C(N)O2 (configuration not stated)	i
CSc1nsc(/C=C/Nc2ccc(C)cc2)c1C#N	4.8
CCOC(=O)C1=C(c2ccccc2)OC(N)=C(C#N)C1c1cccs1 (configuration not stated)	0.6
O=C(O)c1cc(Nc2nc(N3CCOCC3)nc(N3CCOCC3)n2)ccc1Cl	i
O=C1CCCC2C3CCCN4CCCC(CN12)C34 (configuration not stated)	i
O=C(Nc1ccccc1-c1ccccc1)NC1CCN(C(=O)N2CCOCC2)CC1	i
O=C(c1cccc(F)c1)N1CCN=C1SCc1cccnc1	3.5
CCCCn1c(SCC(=O)Nc2cc(C)on2)nnc1-c1ccco1	i
Cc1cc(N(CC(=O)O)S(C)(=O)=O)ccc1Br	0.5
Cc1sc2ncnc(NCc3ccccc3)c2c1C	i
CCOC(=O)c1ccccc1NS(=O)(=O)c1ccc(C)cc1	i
CCCCc1ccc(NS(=O)(=O)c2cccs2)cc1	0.7
CCOC(=O)c1cnc(SC)nc1Oc1cccc(NC(=O)c2cccc(Cl)c2Cl)c1	0.1
CCC(C)(c1ccc(C=O)s1)c1ccc(C=O)s1	2.8
COc1ccc(CNC(=O)C/C(C)=N/NC(=O)C(c2ccccc2)c2ccccc2)cc1	i
COc1ccc(C(C)=O)c2c(O)cccc12	1.7
COc1ccc(NC(=O)c2sccc2SCc2cccc(C(F)(F)F)c2)cc1	i
COc1cccc(Nc2nnc(SCn3nnc4ccccc4c3=O)s2)c1	i
COC(=O)c1ccc(NC(=O)CSc2nccn2CCc2ccccc2)cc1	0.6
S=c1[nH]nc(Cc2ccccc2)n1Cc1ccco1	0.9
O=C(NCc1ccccn1)NC12CC3CC(CC(C3)C1)C2	3.0
CCOc1ccc(NC(=O)COC(=O)CCCc2c[nH]c3ccccc23)cc1	i
O=C(Cc1ccc(S(=O)(=O)N2CCCC2)s1)N1CCOCC1	0.8
Cn1c(SCC(=O)N2CCOCC2)nnc1-c1ccccc1	i

Next results:
SMILES	H5N1 CPE
Cn1c(C(=O)Nc2ccccc2)cc2sccc21	i
Cc1cccc(OCC(=O)Nc2cc(C)ccc2O)c1	1.1
CCOC(=O)N1CCC(N2C(=O)c3ccccc3C2Nc2ccc(C)cc2)CC1 (configuration not stated)	i
COc1cc(Cl)cc(C2NC(=O)NC(C)=C2C(C)=O)c1OCC(=O)O (configuration not stated)	i
CCOC(=O)CCc1c(C)c2ccc(OCc3nn[nH]n3)cc2oc1=O	1.2
Nc1nc2c(s1)CCc1c-2cnn1-c1ccccc1	0.9
CCOc1ccc2ccccc2c1CNCCN1CCOCC1	0.5
Cc1cccc(Oc2ncc(-c3ccc(Cl)cc3)cn2)c1C	i
Cc1ccc(Cl)cc1Nc1nc(-c2sc(NC(=O)c3cccc(Cl)c3)nc2C)cs1	i
Cc1nc(N2CCN(c3ccccc3)CC2)nc2c1C(=O)CCC2	i
CS(=O)(=O)N(Cc1ccccc1)c1ccc(C(=O)N2CCOCC2)cc1	0.9
Cn1c(=NCC(O)COc2ccccc2)sc2ccccc21 (configuration not stated)	1.0
CC1(C)Cc2c(cnn2-c2ccccc2)C(=O)/C1=N\NC(=O)c1ccccc1	i
COc1cc(NS(=O)(=O)N2CCCC2)cc(OC)c1OC	0.3
O=C(c1ccc(CS(=O)(=O)c2ccccc2)o1)N1CCOCC1	0.5
O=C(CCc1nc(-c2ccccc2)no1)Nc1cc(C(F)(F)F)ccc1Cl	i
COc1ccc(/C=N\NC(=O)/C(=C\Nc2nccc(C)n2)NC(=O)c2ccccc2)cc1	i
Cc1onc(-c2ccccc2Cl)c1C(=O)N1CCN=C1SCc1cccnc1	0.8
COc1ccc(/C=N\NC(=O)COc2ccc(C(C)(C)C)cc2)cc1Cn1nc(C)cc1C	0.2
Cc1ccc(/C=N/N2C(=O)C3C(C2=O)C2C=CC3C23CC3)o1 (configuration not stated)	5.9
COc1ccc(-c2ocnc2C(=O)Nc2ccccc2N2CCCCC2)cc1	1.0
CCOc1cccc(C2C(C(=O)c3ccco3)=C(O)C(=O)N2Cc2ccncc2)c1 (configuration not stated)	i
CCN(CC(=O)NC(=O)NCc1ccco1)Cc1nc2ccccc2c(=O)[nH]1	0.4
CCN(CC)P(=O)(C(NC(=O)OC)C(F)(F)C(F)(F)C(F)(F)C(F)F)N(CC)CC (configuration not stated)	0.1
Cc1ccccc1-c1cc(C(=O)Nc2nc3c(s2)CCCC3)c2ccccc2n1	i

Next part:
SMILES	H5N1 CPE
CCN(CC)CCOC(=O)c1ccc2c(c1)OCCO2	4.3
CCOc1cccc(NC(=O)C2CC(=O)N(C)C(=Nc3cccc(F)c3)S2)c1 (configuration not stated)	1.9
O=C(O)c1cc2n(n1)C(C(F)(F)F)CC(c1ccco1)N2 (configuration not stated)	i
CN(C)c1cccc2c(S(=O)(=O)N3CCOCC3)cccc12	0.8
O=C(CN1C(=O)NC2(CCCC2)C1=O)Nc1nc(-c2ccc(F)cc2)cs1	0.3
O=C(c1ccccc1)N(Cc1ccccc1)c1ccccn1	1.3
Cn1c(=O)cc(SCC(=O)NCCCN2CCOCC2)c2ccc(Cl)cc21	1.4
Clc1ccccc1CN1CCN(c2ccccc2)CC1	i
O=c1/c(=C/c2ccccn2)sc2nc3ccccc3n12	0.5
CCOc1nc(-c2ccccc2)ccc1-c1noc(COc2ccccc2)n1	i
COc1ccc(C)cc1S(=O)(=O)Nc1cccc(Cl)c1	2.0
COc1cc(Cl)c(C)cc1NC(=O)COC(=O)/C=C/c1c(C)nn(C2CCS(=O)(=O)C2)c1Cl (configuration not stated)	1.3
CC(C)(C)C(=O)Nc1sc2c(c1-c1nc3ccccc3[nH]1)CCCC2	i
CC(C)(C)c1nn(-c2ccccc2)c2nc(Cl)c(C=O)cc12	i
COc1ccc(Oc2nnc(-c3ccc(C)cc3)c3ccccc23)cc1	i
CCC(c1nnnn1C1CCCC1)N1CCN(c2ccccc2F)CC1 (configuration not stated)	1.4
Cn1c(=O)[nH]c2sc3c(c2c1=O)CC(C)(C)OC3	0.5
O=C(NCc1cccnc1)c1c[nH]c2cc3c(cc2c1=O)OCCO3	0.4
O=C(O)c1c(Cl)c(Cl)c(Cl)c(Cl)c1C(=O)N1CCOCC1	i
C[n+]1c2n(c3ccccc31)N=C(c1ccccc1)CS2	6.5
CCC(=O)NC(c1ccc([N+](=O)[O-])cc1)c1c(O)ccc2ccccc12 (configuration not stated)	i
COC(=O)Nc1ccc2c(c1)N(C(=O)CCN1CCOCC1)c1ccccc1S2	i
Oc1ccc(NCc2ccccc2OCc2ccccc2F)cc1	0.5
O=C(CCCCCN1C(=O)CCC1=O)Nc1ccc(Br)cc1F	0.7
COc1cc2c(N3CCOCC3)cc(O)c(CC(=O)Nc3ccccc3)c2cc1OC	i

(more compounds)
SMILES	H5N1 CPE
Cc1cccc(-c2nc(CS(=O)CC(=O)NCc3cccs3)c(C)o2)c1 (configuration not stated)	0.1
CCOc1ccc(C=NC23CN4CN(CN(C4)C2)C3)cc1	0.2
CCN(CC)C(=O)CN(c1cc2c(cc1OC)oc1ccccc12)S(=O)(=O)c1ccc(C)cc1	1.8
COC(=O)CSc1nsc(SCC(=O)OC)n1	i
CC1Cc2ccccc2N1C(=O)C12CCC(C)(C(=O)C1)C2(C)C (configuration not stated)	6.9
O=C(NCCO)c1nc(NCCO)c2ccccc2n1	i
CCCCN(CC)CCCNC(=O)CS(=O)(=O)Cc1nc(-c2cccc(OC)c2)oc1C	i
CCCCSc1nnc(-c2c[nH]c3ccccc23)n1C	1.0
Cn1c(N)c(C#N)c2c(c1=S)CSC(C)(C)C2	1.2
NS(=O)(=O)c1ccc(CCNc2nc(CN3CCCCC3)nc3sc4c(c23)CCC4)cc1	i
O=C(COc1ccc(S(=O)(=O)NC2CCCCC2)cc1Cl)NCc1ccc2c(c1)OCO2	2.3
COc1ccc(/C=C2\CCc3ccccc3C2=O)cc1Cn1cccn1	i
O=C(O)c1cccc(NC(=O)c2ccc3c(c2)C(=O)N(CC2CCCO2)C3=O)c1 (configuration not stated)	0.2
Cc1ccc(C(=O)Nc2ccc(Cl)cn2)cc1	i
CN(Cc1ccccc1)c1nc2c(c(=O)[nH]c(=O)n2C)n1CCOc1ccccc1	1.2
CCN(CC)CCNS(=O)(=O)c1ccc2[nH]cc(C(=O)O)c(=O)c2c1	1.6
CCOCCCN(CCC#N)S(=O)(=O)c1ccc(S(=O)(=O)N2CCCC2)cc1	2.1
O=C(CCS(=O)(=O)c1ccc(Br)cc1)NC1CCCC1	0.2
Cc1ccnc(SCC(=O)O)n1	0.6
Nc1nc(NC(=O)Cc2ccccc2)nn1-c1ccccc1	i
CCn1ncc(CN2CCN(C(=O)Nc3ccccc3C(=O)OC)CC2)c1C	0.7
Cc1ccc(Sc2c([N+](=O)[O-])ncn2C)cc1	0.1
c1ccc2[nH]c(-c3ccnc4ccccc34)nc2c1	i
Cc1c(C(=O)N2CCC3(CC2)OCCO3)sc2ncnc(N3CCN(c4ccccn4)CC3)c12	i
CCOC(=O)N1CCC(NC(=O)C(NS(=O)(=O)c2ccc3c(c2)CCN3C(C)=O)C(C)C)CC1 (configuration not stated)	i

(cont.)
SMILES	H5N1 CPE
CCOc1ccc(NC(=O)c2cccs2)c([N+](=O)[O-])c1	i
CN1CCN(C(=O)COc2ccc3ccccc3c2Br)CC1	i
CCCSc1nsc(SCCC)c1C#N	i
COC(=O)C(Cc1cncn1COCc1ccccc1)NC(=O)OC(C)(C)C (configuration not stated)	i
CC1CCc2nc(NC(=O)Cc3cccs3)sc2C1 (configuration not stated)	i
COCc1cc(C)[nH]c(=O)c1C#N	0.2
OC1C[N+]2(CCCCC2)C1	3.1
C=CCNC(=O)c1onc(CSc2ccc(F)c(F)c2)c1C(=O)O	0.1
CCOC(=O)c1ccc(NS(=O)(=O)c2c(C)n(C)c(=O)n(C)c2=O)cc1	0.5
Cc1ccc(N2C(=O)CC3(CC4C=CC3C4)C2=O)cc1 (configuration not stated)	0.9
COc1cc2c(cc1NC(=O)CC1SC(N3CCCC3)=NC1=O)oc1ccccc12 (configuration not stated)	i
O=[N+]([O-])c1ccc(O)c(-c2nc(-c3ccccc3)c(-c3cccs3)[nH]2)c1	3.0
CCC(=O)Nc1cc(OC)c(NC(=O)c2ccccc2)cc1OC	i
O=C(ONC1=NCCCCC1)c1c(F)cccc1F	2.5
Cc1ccc(C)c(C(=O)COC(=O)c2ccc(Br)o2)c1	i
CC1CCc2nn(CC(=O)Nc3c(F)cc(F)cc3Br)cc2C1 (configuration not stated)	i
Cc1noc(C)c1COC(=O)CCN1c2ccccc2Sc2ccccc21	0.2
COC(=O)Cc1cn(-c2ncc(C(F)(F)F)cc2Cl)c2ccccc12	1.0
CCOc1ccc(CCNC(=O)CCn2cccc2)cc1OCC	i
O=C(Nn1cnc2ccccc2c1=O)C1CCCCC1	i
COC(=O)c1ccc(N/C=C/C(=O)c2ccc(OC)c(OC)c2)cc1	i
CN1CCN(S(=O)(=O)c2ccc(=O)[nH]c2)CC1	0.8
O=C(CCl)N(c1ccccc1)c1c[nH]c2ccccc12	i
O=C(COc1cc(Cl)c(Cl)cc1Cl)Nn1cnnc1	i
Cc1cc(SCC(=O)c2cc3ccccc3o2)nc2ccccc12	i

Other structures follow.
SMILES	H5N1 CPE
COC(=O)C1=C(C)N=c2s/c(=C/c3ccoc3)c(=O)n2C1c1ccccc1 (configuration not stated)	0.7
CC1CCN(CCCNC(=O)c2ccc3c(=O)n(CCc4ccccc4)c(=O)[nH]c3c2)CC1	i
CC(=NCCCN1CCOCC1)c1c(O)[nH]c(=O)[nH]c1=O	0.5
O=c1c2ccccc2nnn1CSc1nnc(-c2cccs2)n1Cc1ccccc1	i
CC(C)CCn1nnnc1C(c1ccccc1)N1CCN(C)CC1 (configuration not stated)	i
CCn1cc(C(=O)NCc2ccc3c(c2)OCO3)c(=O)c2cc(F)c(N3CCN(C)CC3)cc21	i
CCOC(=O)CCNC(C(=O)OCC)c1ccccc1 (configuration not stated)	1.3
CCn1nnc(-c2ccccc2NC(=O)c2cccc(-n3cnnn3)c2)n1	i
CC(C)n1c(SC2C(=O)CC(C)(C)CC2=O)nc2c1c(=O)n(C)c(=O)n2C	0.5
CCCC1COC(Cn2cncn2)(c2ccc(C)cc2)O1 (configuration not stated)	i
c1ccc(-c2nc(N3CCCCCC3)nc(-n3ccnc3)n2)cc1	i
Cn1c(Cn2c(=O)sc3ccccc32)nnc1SCc1ccccc1F	2.5

Structural class, those above containing an aryl thioether with sulfur outside any ring
SMILES	H5N1 CPE
CSc1nsc(/C=C/Nc2ccc(C)cc2)c1C#N	4.8
CCCCn1c(SCC(=O)Nc2cc(C)on2)nnc1-c1ccco1	i
CCOC(=O)c1cnc(SC)nc1Oc1cccc(NC(=O)c2cccc(Cl)c2Cl)c1	0.1
COc1ccc(NC(=O)c2sccc2SCc2cccc(C(F)(F)F)c2)cc1	i
COc1cccc(Nc2nnc(SCn3nnc4ccccc4c3=O)s2)c1	i
COC(=O)c1ccc(NC(=O)CSc2nccn2CCc2ccccc2)cc1	0.6
Cn1c(SCC(=O)N2CCOCC2)nnc1-c1ccccc1	i
Cn1c(=O)cc(SCC(=O)NCCCN2CCOCC2)c2ccc(Cl)cc21	1.4
COC(=O)CSc1nsc(SCC(=O)OC)n1	i
CCCCSc1nnc(-c2c[nH]c3ccccc23)n1C	1.0
Cc1ccnc(SCC(=O)O)n1	0.6
Cc1ccc(Sc2c([N+](=O)[O-])ncn2C)cc1	0.1
CCCSc1nsc(SCCC)c1C#N	i
C=CCNC(=O)c1onc(CSc2ccc(F)c(F)c2)c1C(=O)O	0.1
Cc1cc(SCC(=O)c2cc3ccccc3o2)nc2ccccc12	i
O=c1c2ccccc2nnn1CSc1nnc(-c2cccs2)n1Cc1ccccc1	i
CC(C)n1c(SC2C(=O)CC(C)(C)CC2=O)nc2c1c(=O)n(C)c(=O)n2C	0.5
Cn1c(Cn2c(=O)sc3ccccc32)nnc1SCc1ccccc1F	2.5
